TSHR agonist – qHTS Assay for Agonists of the Thyroid Stimulating Hormone Receptor; Thyrotropin receptor (Homo sapiens), P16473; HEK293-CNG-TSHR cells (CNG channel as cAMP sensor), membrane potential dye, cAMP; Potency, µM (titrated, usually from 57.1 µM), without a hit: at the top dose activation, most hits filed as activators; hit rate 0.48% among 73,000; AID 926, 2007; active = well fitted activation curve of enough size with the parental cells flat; inconclusive = any curve in the parental cells; inactive = parental cells flat and receptor cells flat or falling; note: potency is the fitted concentration of half-maximal effect; % of control where 0% means no effect; weak receptor curves with flat parental cells got no call and are not listed
Target sequence (P16473 whole entry, looked up): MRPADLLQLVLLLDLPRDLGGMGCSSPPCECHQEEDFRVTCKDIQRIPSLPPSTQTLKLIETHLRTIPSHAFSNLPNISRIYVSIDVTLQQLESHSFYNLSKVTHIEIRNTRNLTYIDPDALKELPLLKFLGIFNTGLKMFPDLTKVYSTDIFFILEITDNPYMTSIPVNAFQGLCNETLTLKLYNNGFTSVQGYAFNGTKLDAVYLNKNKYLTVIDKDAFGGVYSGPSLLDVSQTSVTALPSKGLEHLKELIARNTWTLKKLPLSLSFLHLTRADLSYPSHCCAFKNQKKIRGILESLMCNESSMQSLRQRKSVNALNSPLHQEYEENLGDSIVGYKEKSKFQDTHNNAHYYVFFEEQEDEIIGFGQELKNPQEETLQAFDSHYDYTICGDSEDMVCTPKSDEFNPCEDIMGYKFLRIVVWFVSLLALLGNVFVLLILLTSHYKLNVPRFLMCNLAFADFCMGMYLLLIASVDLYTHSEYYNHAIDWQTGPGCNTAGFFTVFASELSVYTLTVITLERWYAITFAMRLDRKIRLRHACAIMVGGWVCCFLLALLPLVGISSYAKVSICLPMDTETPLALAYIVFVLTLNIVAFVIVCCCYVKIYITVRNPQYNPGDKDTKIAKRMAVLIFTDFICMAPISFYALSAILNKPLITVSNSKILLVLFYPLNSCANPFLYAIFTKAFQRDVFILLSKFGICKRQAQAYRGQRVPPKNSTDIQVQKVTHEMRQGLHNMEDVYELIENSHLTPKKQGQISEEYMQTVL
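HEK 293 cells stably expressing TSHR and a modified CNG channel, with CNG-only parental cells as counterscreen, were preloaded 60 min at room temperature with membrane potential dye containing 100 uM RO 20-1724. Compound exposure was 30 min, and depolarization was read as fluorescence at 590 nm.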
A647 fluor – qHTS Assay for Spectroscopic Profiling in A647 Spectral Region. Compound fluorescence, A647 channel (570/671 nm), Tris buffer. 59,000 tested, under 10 active. AID 592, 2007. max dye-equivalent concentration, M; active means above 1 µM dye equivalent; inconclusive means 0.1 to 1 µM; inactive means 0.1 µM or less;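 note: values scaled relative to a standard on each plate; highest value over a series up to 38 µM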
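Fluorescence read (570 nm ex, 671 nm em) after 15 min RT incubation of compounds in 100 mM Tris buffer, pH 8.0; values expressed as dye-equivalent concentration against a six-point A647 standard series on each plate.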
AID923 – qHTS Assay for Allosteric/Competitive Inhibitors of Caspase-1: Spectroscopic Profiling in AFC Spectral Region; compound fluorescence, AFC spectral region (405/520 nm); almost no hit is shown here; Potency, µM (highest dose often 57.5 µM), without a hit: top-dose fluorescence increase, hits mostly activators; hit rate 1.1% among 75,000; active = well fitted activation curve with a large enough effect; inconclusive = small, poorly fitted or top-dose-only effect;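 note: potency is the fitted concentration of half-maximal effect; 0% is about no effect; scaled to a free AFC standard on each plate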
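Baseline compound fluorescence (AFC region, 405 nm ex/520 nm em) taken from the intercept of kinetic reads with 50 nM caspase-1 and 5 uM Ac-WEHD-AFC; normalized to an on-plate AFC standard curve; compounds titrated up to 57 uM.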
Resorufin fluor – qHTS Assay for Spectroscopic Profiling in Resorufin Spectral Region | Compound fluorescence, resorufin region 547/598 nm, buffer; active compounds read high | max dye-equivalent concentration, M | hit rate 0.04% among 59,000 | AID 588, 2007; active = above 10 nM dye equivalent; inconclusive = 1 to 10 nM; inactive = 1 nM or less; a few of its hits are not listed in these tables; note: highest value over a series up to 38 µM
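Tris 100 mM pH 8.0; compound added, 15 min RT; CCD imager read, ex 547 nm/em 598 nm; signal normalized to resorufin standard curve (six concentrations per plate) as dye-equivalent concentration.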
A488 autofl – qHTS Assay for Spectroscopic Profiling in A488 Spectral Region | hit rate 0.1% among 59,000 | compound autofluorescence, A488 spectral region, dye equivalency; active compounds read high | max dye equivalency, M | AID 591, 2007; active = above 10 nM dye equivalent; inconclusive = 1 to 10 nM; inactive = 1 nM or less; about half of its hits are not listed in these tables;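 note: highest value over a series up to 38 µM; compound alone in buffer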
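Compound autofluorescence was read in 100 mM Tris pH 8.0 after 15 min at room temperature, ex 480 nm/em 540 nm. Intensities were converted to A488 dye-equivalent concentration using an on-plate six-point A488 standard curve.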
Starred values were filed as active, the others as inactive; i = inactive; ? = inconclusive; / = not tested or not shown; [ ] = dose if it differs, or a comment.

SMILES	TSHR agonist	A647 fluor	AID923	Resorufin fluor	A488 autofl
CCOc1ccc(C2C(=O)N(C3CCCCC3)CC(=O)N2CC2CCCO2)cc1OC (stereo not drawn)	0%	3.5e-09	-1.9%	i	i
COC(=O)c1c(-c2ccc(C)cc2)csc1N	?	/	2.9%	/	/
COC(=O)NC(/C(C(=O)OC)=C(\C)NCc1ccccc1)c1ccc(Cl)cc1 (stereo not drawn)	7%[11.4 µM]	/	0.4%[11.5 µM]	/	/
O=C(c1ccccc1)[C@H](Nc1ccc2ccccc2c1)c1ccccc1	-3%[11.4 µM]	3.1e-09	-2.6%[11.5 µM]	i	i
N#Cc1cccc(NC(=O)c2nc(-c3ccccc3)n(-c3ccccc3)n2)c1	/	2.1e-08	-1.7%	i	i
CCN(CC)CCn1c(-c2ccccc2)nc2c(NCCO)nc(C)nc21	6%	/	-1.5%	/	/
COc1cccc(NC(=O)N2CCN(Cc3nc4ccccc4c(=O)[nH]3)CC2)c1	-5%	3.8e-09	1.2%	i	i
NS(=O)(=O)c1ccc(CCNC2CC(=O)N(Cc3ccccc3)C2=O)cc1 (stereo not drawn)	0%	7.7e-09	0.2%	i	i
O=c1[nH]c(C2CCCN(S(=O)(=O)c3ccc(F)cc3)C2)nc2c1nnn2Cc1ccccc1 (stereo not drawn)	?	4.3e-09	0.4%	i	i
CCCCOc1ccccc1P(=O)(O)CP(=O)(c1ccccc1)c1ccccc1	/	5.1e-09	/	i	i

An excerpt from above in order of the A647 fluor value, low to high.
SMILES | A647 fluor
COc1cccc(NC(=O)N2CCN(Cc3nc4ccccc4c(=O)[nH]3)CC2)c1 | 3.8e-09
CCCCOc1ccccc1P(=O)(O)CP(=O)(c1ccccc1)c1ccccc1 | 5.1e-09
NS(=O)(=O)c1ccc(CCNC2CC(=O)N(Cc3ccccc3)C2=O)cc1 (stereo not drawn) | 7.7e-09

(next part)
SMILES	TSHR agonist	A647 fluor	AID923	Resorufin fluor	A488 autofl
Cc1nn(C)c(C)c1CN(C)C(=O)c1cnn2c1NC(c1ccccc1)CC2C(F)(F)F (stereo not drawn)	?	8e-09	1.4%	i	i
CC1(C)Cc2nc(-c3ccccc3)n3cnnc3c2CO1	-1%	1.1e-08	-2.1%	i	i
CN(C)CC(=O)N1c2ccccc2CCc2ccc(NC(=O)c3ccc(N)cc3)cc21	-2%[11.4 µM]	7.9e-09	-1.7%	i	i
COC(=O)Nc1ccc(NC(C)=O)cc1	22%[11.4 µM]	/	1.0%	/	/
CCOC(=O)N1CCN(C(=O)C2CCN(S(=O)(=O)c3cc(Cl)ccc3Cl)CC2)CC1	7%	1e-09	0.0%	i	i
Cc1ccc(NC(=O)Cc2nc(CSc3nnc(-c4ccc5c(c4)OCO5)o3)cs2)cc1	13%	5.2e-09	0.5%	i	i
CCCNC(=O)Nc1cc(C)on1	-2%	5.5e-09	-1.2%	i	i
COc1ccc(-n2nc(C(=O)Nc3ccc4c(c3)OCO4)c3ccccc3c2=O)cc1	?	5.4e-09	-0.4%	i	i
O=C(O)c1ccc(C(=O)Nc2cccc3ccccc23)c(C(=O)O)c1	-4%[11.4 µM]	3.3e-08	1.9%[11.5 µM]	i	i
O=C(NCc1ccco1)c1ccc(COCC(F)(F)C(F)F)cc1	-5%	1.5e-08	-0.1%	i	i
On1c(-c2ccco2)nc2c1CCc1nonc1-2	10%	/	3.2%	/	/
Cc1nnc2sc(-c3ccco3)nn12	12%	3.5e-08	1.8%	i	i
COc1cccc(OC)c1C(=O)Nc1ccc(N2CCN(S(C)(=O)=O)CC2)cc1	/	2e-09	-1.6%	i	i
CCCCCCNC(=O)c1c(N)n(/N=C/c2ccco2)c2nc3ccccc3nc12	?	2.9e-08	7.5%	i	i
Cc1cc(-c2ccccc2)nc2cc(C(N)=O)nn12	6%	2.8e-08	4.5%	i	i
COc1cc(Cl)c(C)cc1NC(=O)COC(=O)c1cnc(C)cn1	1%	2.5e-08	-0.4%	i	i
CC(=O)Nc1cccc(NC(=O)C2CCCN2C(=O)Nc2cccc(F)c2)c1 (stereo not drawn)	6%	5.3e-09	0.2%	i	i
O=C1CC(N2CCN(c3ccc(S(=O)(=O)N4CCCC4)cc3)CC2)C(=O)N1c1ccc(F)cc1 (stereo not drawn)	0%	4.1e-08	-1.1%	i	i
O=c1[nH]c(=O)n(C2CCCO2)cc1Br (stereo not drawn)	-1%	4.5e-08	-0.8%	i	i
CCN(CC)CCOC(=O)c1cccc(OC)c1	12%	7.2e-09	-0.9%	i	i
Cc1cccc(CNc2ncncc2-c2cccnc2)c1	12%	3.4e-09	2.6%	i	i
CC/C(=C(\c1ccccc1)c1ccc(OCCN(C)C)cc1)c1ccc(O)cc1	18%	/	2.2%	/	/
O=C(c1ccncc1)c1nccn1-c1ccccn1	?	1e-08	1.5%	i	i
COc1cc(C(=O)NCCC(=O)NCCN2CCOCC2)cc(OC)c1OC	1%	1e-09	2.3%	i	i
O=C1C2C3C=CC(C3)C2C(=O)N1c1ccncc1 (stereo not drawn)	-8%	3.1e-08	-1.3%	i	i
O=C(NCc1ccco1)C(C(=O)c1ccc(F)cc1)n1ccccc1=O (stereo not drawn)	16%	9.2e-09	-2.9%	i	i
CCN(CC)C(=O)CSc1nnc(CCN)o1	-4%	3.1e-08	2.1%	i	i
CCOc1cccc(OCCCNCCCOC)c1	4%	/	0.3%	/	/
O=C(OCC(O)C(O)COC(=O)c1ccccc1)c1ccccc1 (stereo not drawn)	15%	5.8e-09	0.5%	i	i
Cc1ccc(C(C(=O)NC2CCCCC2)N(C(=O)c2csnn2)C2CCCC2)o1 (stereo not drawn)	?	1e-09	-2.0%	i	i
CCOc1ccc(C2C(C#N)=C(N)Oc3cc(C)n(Cc4ccco4)c(=O)c32)cc1OC (stereo not drawn)	6%	1.3e-09	1.1%	i	i
COc1cc(C2NC(=O)NC(C)=C2C(=O)OC(C)(C)C)ccc1OCC(N)=O (stereo not drawn)	-1%	6.6e-08	1.8%	i	i
c1nnc(NC2=NCCCCC2)s1	8%	2.2e-09	-2.2%	i	i
Nc1ccc(O)cc1C(=O)OCC(=O)C12CC3CC(CC(C3)C1)C2	-5%	2.6e-09	2.3%	i	i
Cc1cc(C)c2cc3c(ccn3C3OC[C@H](O)[C@H](O)[C@H]3O)cc2n1 (stereo partly drawn)	28%	4.9e-09	-0.8%	i	i
Cc1ccc(F)cc1NC(=O)C1CCN(c2cnccn2)CC1	-3%	8.4e-09	4.0%	i	i
CC(=O)Oc1ccc(-c2ccc(C(=O)O)cc2)cc1	12%	/	0.3%	/	/
Cc1ccc(Cl)cc1N1CCN(C(=O)c2cc3c(=O)n(C)c4ccccc4c3n2C)CC1	-1%	/	-0.5%	/	/
COc1cccc(Nc2cc(C)nc3ccccc23)c1	?	5.2e-09	-1.3%	i	i
COCCCNCCOc1cc(C(C)C)ccc1C	9%	1e-09	0.8%	i	i
COC(=O)CCCCCNc1ccc(C(=O)OC)cc1N	-1%	2.5e-09	4.6%	i	i
COc1ccccc1/C=c1\sc2nc(-c3ccncc3)nn2c1=O	0%	1e-09	0.7%	i	i
O=c1c2ccccc2oc2ncccc12	-7%	5.1e-08	0.1%	i	i
Clc1c(CSc2nc3ccccc3o2)nc2ccccn12	?	3e-08	1.9%	i	i
Cc1ccc(S(=O)(=O)/N=C(\CN2CCCCC2)N2CCOCC2)cc1	1%[11.4 µM]	/	-0.6%	/	/
C1CCCC1	-2%	/	4.0%	/	/
[O-][N+]12CC[N+]([O-])(CC1)c1ccccc12	-2%[11.4 µM]	1e-09	-1.2%	i	i
CNC(=O)NC(=O)CSc1ccc(NC(C)=O)cc1	0%	1e-09	-0.5%	i	i
Cc1nn(CC(=O)Nc2ccccc2)c(=O)c2ccccc12	0%	2.1e-08	0.9%	i	i
Cn1nc(-c2ccc(Cl)cc2)c2cc(C(=O)NCCCN3CCOCC3)sc21	12%	/	1.7%	/	/

Some of the entries so far, with values under each structure.
Values run as follows: TSHR agonist, A647 fluor, AID923, Resorufin fluor, A488 autofl
> C1CCCC1
→ -2%, /, 4.0%, /, /
> [O-][N+]12CC[N+]([O-])(CC1)c1ccccc12
→ -2%[11.4 µM], 1e-09, -1.2%, i, i

Following part
SMILES	TSHR agonist	A647 fluor	AID923	Resorufin fluor	A488 autofl
Cc1ccc2cc(CN(CC(C)C)C(=O)C3CCCO3)c(=O)[nH]c2c1 (stereo not drawn)	2%	1.6e-08	-0.4%	i	i
CN(C)S(=O)(=O)c1ccc(C(=O)OCC(=O)c2ccc(OC(F)F)cc2OC(F)F)cc1	9%	6.2e-08	-1.0%	i	i
CC(C)COC(=O)Cc1c(O)c2ccccc2[nH]c1=O	1%	/	0.0%	/	/
CCc1c(C)sc(NC(=O)c2cc(C)on2)c1C#N	-6%	1e-09	1.0%	i	i
O=C(/C=C/N1CCOCC1)c1coc2ccccc12	16%	/	-1.6%	/	/
c1ccc(-c2cc3c(-n4cccc4)ncnc3o2)cc1	?	1e-09	0.7%	i	i
Cc1ccc(NC(=O)c2ccco2)cc1NC(=O)CSc1nnc(-c2cccs2)n1C	0%	3.8e-08	1.4%	i	i
C[C@]12CC[C@@H]3c4ccc(O)cc4C(=O)C[C@H]3[C@@H]1CC[C@@H]2O	/	4.2e-08	/	i	i
Cn1c(SCC(=O)N2CCOCC2)nnc1-c1cccc(NC(=O)c2ccccc2)c1	20%	6.7e-09	3.3%	i	i
CCc1nnc(NC(=O)CSc2nnc(Cc3ccc(OC)cc3)o2)s1	?	8.3e-09	0.3%	i	i
CC(NC(=O)c1cccs1)c1ccc2c(c1)OCO2 (stereo not drawn)	0%	1e-09	-1.2%	i	i
CCCn1c(-c2ccc(F)cc2)nc2c(NCC(C)(C)CN(C)C)nc(C)nc21	?	/	6.0%	/	/
CCN(CC)S(=O)(=O)c1ccc(C(=O)N2CCN=C2SC)cc1	-1%	/	0.0%	/	/
O=C(Nc1ccccc1Cl)N1CCN(c2ccc3nnc(-c4ccc(F)cc4)n3n2)CC1	6%	/	-0.3%	/	/
Cc1csc(NC(=O)C2CCCN(S(=O)(=O)c3cnc[nH]3)C2)n1 (stereo not drawn)	-2%	/	3.6%	/	/
CC(C)C(NC(=O)CNC(=O)OC(C)(C)C)C(=O)NCc1ccccc1 (stereo not drawn)	5%	3.2e-08	0.6%	i	i
O=c1c2ccccc2c(C=Nc2ccc(Cl)cn2)c(O)n1-c1cc(Cl)ccc1N1CCOCC1	6%	7.5e-09	0.2%	i	i
CCC(=O)Nc1cc(C(=O)NCC2CCCN2CC)c(OC)cc1N(C)C (stereo not drawn)	?	/	-1.3%	/	/
O=C(CSc1ncnc2c1oc1ccccc12)NCc1ccco1	5%	1e-09	-1.2%	i	i
CC(=O)c1cccc(S(=O)(=O)N2CCC(n3nnc4cc(F)ccc43)CC2)c1	?	3.5e-08	-0.2%	i	i
CCOc1cc(C(=O)NC)cc(OCC)c1OCC	3%	1e-09	2.5%	i	i
Cc1ccc2[nH]c(=O)c(CN(CCc3ccccc3)C(c3nnnn3Cc3ccco3)C(C)C)cc2c1 (stereo not drawn)	11%	2.8e-08	12%	i	i
Cc1cc(-c2ccc(F)cc2)nc2cc(C(N)=O)nn12	/	6.1e-08	/	i	i

Some values from the results shown:
In TSHR agonist, CCOc1cc(C(=O)NC)cc(OCC)c1OCC has the entry 3%
In AID923, CCC(=O)Nc1cc(C(=O)NCC2CCCN2CC)c(OC)cc1N(C)C (stereo not drawn) has the entry -1.3%
In TSHR agonist, O=c1c2ccccc2c(C=Nc2ccc(Cl)cn2)c(O)n1-c1cc(Cl)ccc1N1CCOCC1 has the entry 6%
In AID923, CCCn1c(-c2ccc(F)cc2)nc2c(NCC(C)(C)CN(C)C)nc(C)nc21 has the entry 6.0%

High-throughput results from PubChem BioAssay.

Only part of the results is shown. The share of hits here may be higher or lower than overall.
